TRPML1 blocker: qHTS for Inhibitors of the Human Mucolipin Transient Receptor Potential 1 (TRPML1). actives 0.02% (n = 390,000). TRPML1-inducible cells, Ca2+ dye fluorescence, FDSS; stronger effect = lower value; inhibition of EC80 agonist-evoked calcium signal. activity change, negative = inhibition, % (concentration not given with the values). Mucolipin-1 (Homo sapiens), Q9GZU1; in the data active means activity change below about -50%; inconclusive means about -30% to -50%; inactive means above about -30%;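 further: stimulus is agonist 54-4 at its EC80 concentration; on the % scale 0 is the no-effect control and ±100 the full control effect; compound concentration not given in the record; the text of the record puts the active cut at -80%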
Target sequence (Q9GZU1 whole entry, looked up): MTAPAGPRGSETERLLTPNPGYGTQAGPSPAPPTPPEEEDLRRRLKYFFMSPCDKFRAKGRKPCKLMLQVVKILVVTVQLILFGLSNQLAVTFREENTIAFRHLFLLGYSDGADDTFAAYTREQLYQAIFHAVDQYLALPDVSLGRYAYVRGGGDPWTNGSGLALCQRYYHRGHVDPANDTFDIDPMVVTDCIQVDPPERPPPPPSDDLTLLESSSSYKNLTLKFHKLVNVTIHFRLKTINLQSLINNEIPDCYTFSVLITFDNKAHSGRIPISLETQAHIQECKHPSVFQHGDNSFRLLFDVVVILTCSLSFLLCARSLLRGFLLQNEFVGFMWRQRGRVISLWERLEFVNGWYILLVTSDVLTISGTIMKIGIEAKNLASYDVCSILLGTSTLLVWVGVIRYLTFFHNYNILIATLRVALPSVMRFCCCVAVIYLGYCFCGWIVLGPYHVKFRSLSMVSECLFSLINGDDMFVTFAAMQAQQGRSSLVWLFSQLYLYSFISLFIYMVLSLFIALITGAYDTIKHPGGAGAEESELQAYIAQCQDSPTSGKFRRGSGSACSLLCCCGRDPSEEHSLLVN
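TRPML1-DL cells, Tet-induced overnight (~16 h, 37 °C) at 1,500 cells/well, were loaded with Ca8 no-wash dye plus quencher for 45-90 min at room temperature. Compounds were pinned during FDSS kinetic reading; agonist 54-4 at EC80 (4 uM final) then added.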
TRPML1 ag: qHTS for Agonists of the Human Mucolipin Transient Receptor Potential 1 (TRPML1); activation, % (concentration not given with the values); actives 0.12% (n = 410,000); Mucolipin-1 (Homo sapiens), Q9GZU1; TRPML1-expressing cells, Ca2+ dye fluorescence, FDSS; host cell line not named in the record; reference of the full effect not given here; AID 624414, 2012; in the data active = activation above about 50%; inconclusive = about 30% to 50%; inactive = below about 30%; further: 0% is about no effect; the text of the record puts the active cut at 80%
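In this qHTS format, compounds were pin-transferred onto Ca8-dye-loaded TRPML1-DL cells induced with Tet overnight, and intracellular Ca2+ fluorescence was recorded kinetically for 110 s after a 10 s baseline. A subsequent 4uM final 54-4 (EC80) addition followed by a second 110 s read served as the antagonist phase.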
gsp agonist: qHTS for Agonist of gsp, the Etiologic Mutation Responsible for Fibrous Dysplasia/McCune-Albright Syndrome: qHTS; gsp mutant cells, cAMP HTRF, 30 min; control for the full effect not named in the record; Potency, µM (highest dose often 76.9 µM), for inactives: top-dose activation (cAMP increase), hits mostly activators; actives 0.13% (n = 340,000); AID 624287, 2012; active = well fitted activation curve with a large enough effect; inconclusive = small, poorly fitted or top-dose-only effect, or another doubt; inactive = no such curve, though single readings can be large or run the other way; cell line not stated here;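 further: phosphodiesterase inhibitor Ro 20-1724 added with compounds to block cAMP breakdown; potency means the concentration at half of the fitted maximal effect; nearly all actives have a fitted effect of over 60% in size; about a fifth of the inactives were tested at one dose only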
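Cells stably selected in G418 were plated at 2000/well, grown 16-24 hr, then given compounds in DMSO with the PDE inhibitor […] (300 uM solution added) for 30 min at 37C; cAMP was read by HTRF.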
Menin MLL FP FL: qHTS Assay for Inhibitors Targeting the Menin-MLL Interaction in MLL Related Leukemias: Competition With Fluorescein Labeled MLL-derived Peptide. Fluorescence polarization, fluorescein-MLL peptide displacement from menin. FP activity change, % at 61.4 µM. 290,000 tested, under 10 active. AID 1766, 2009; inconclusive = falling polarisation curve, or a change in total fluorescence; inactive = total fluorescence flat and polarisation flat or rising; no compound was filed as active; the % refers to the polarisation; negative = inhibition;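 further: % of control where 0% means no effect; inhibitors lower the polarisation; unlabelled MLL peptide was the positive control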
ClpP mod: qHTS Assay for Activators of ClpP | ATP-dependent Clp protease proteolytic subunit (Bacillus subtilis (strain 168)), P80244 | purified B. subtilis ClpP, FRET peptide cleavage, 20 min | Potency, µM (doses to about 57.5 µM), for inactives: at the highest dose activity change, negative = active | actives 1.9% (n = 340,000); active = well fitted falling curve with a large enough effect; inconclusive = small, poorly fitted or top-dose-only effect; inactive = no such curve, though single readings can be large or run the other way; further: potency means the concentration at half of the fitted maximal effect; the source files actives as falling curves though it sought activators and does not explain the sign; nearly all actives have a fitted effect of over 65% in size; many hits overshoot -100%
Target sequence (P80244 whole entry, looked up): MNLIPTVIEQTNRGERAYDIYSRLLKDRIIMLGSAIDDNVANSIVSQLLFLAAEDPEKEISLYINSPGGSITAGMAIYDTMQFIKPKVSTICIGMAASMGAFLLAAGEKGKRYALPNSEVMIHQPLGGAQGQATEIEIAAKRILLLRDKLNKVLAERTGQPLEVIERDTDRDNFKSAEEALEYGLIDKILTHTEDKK
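Buffer: 100 mM Tris/HCl pH8, 100 mM KCl, 0.05% low protease BSA, 2.5% glycerol, 0.01% Tween-20. ClpP 10 microg/mL final; 20 min RT; delta FRET normalized to ADEP and DMSO controls.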
gsp antagonist: qHTS for Antagonists of gsp, the Etiologic Mutation Responsible for Fibrous Dysplasia/McCune-Albright Syndrome: qHTS; Potency, µM (series often up to 76.9 µM), without a hit: top-dose activity change, negative = inhibition, actives largely listed as inhibitors; gsp-mutant cells, cAMP HTRF, 30 min; control for the full effect not named in the record; actives 0.4% (n = 340,000); active = falling curve of any shape with a large fitted effect; inconclusive = falling curve, mostly with a smaller effect; inactive = flat or rising curve; cell line not stated here;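 further: intracellular cAMP measured with PDE inhibitor Ro 20-1724 present during compound exposure; potency means the concentration at half of the fitted maximal effect; on the % scale 0 is the no-effect control and ±100 the full control effect; nearly all actives have a fitted effect of over 65% in size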
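G418-selected cells were plated in DMEM/10% FBS for 16-24 h at 37C, then treated with compounds plus the PDE inhibitor […] (300 uM solution added) for 30 min at 37C. Intracellular cAMP was measured by HTRF after 30 min lysis at room temperature.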
Active calls of the source: *; & = joins results of further samples; [ ] = dose if it differs, or a comment.

For CC(=O)/C(C[N+]1(C)CCCCC1)=N\O the results were TRPML1 blocker 4, TRPML1 ag -0.1, gsp agonist 10%, Menin MLL FP FL 4.7, ClpP mod -2.6% and gsp antagonist 6%.
For OC(c1ccccn1)(c1ccccn1)c1ccccn1 the results were TRPML1 blocker 5, TRPML1 ag 0.9, gsp agonist 4%, ClpP mod 0.7% and gsp antagonist 26%.
`CCOC(=O)c1sc(NC(=O)CC)nc1C` gave TRPML1 blocker 8, TRPML1 ag -0.7, gsp agonist 15%, Menin MLL FP FL -2.1 and gsp antagonist 8%.
Screening COc1ccc(C2(C)NC(=O)N(Cc3cc(Cl)cc4c3OCOC4)C2=O)cc1OC (stereo not drawn) returned TRPML1 blocker 7, TRPML1 ag 0.2, gsp agonist 18%, Menin MLL FP FL 1.0, ClpP mod 2.4% and gsp antagonist -12%.
Screening Oc1ccc(Oc2ccc3c(C(F)(F)F)cc(C(F)(F)F)nc3n2)cc1 returned TRPML1 blocker 17, TRPML1 ag 4.7, gsp agonist 14%, Menin MLL FP FL -0.4, ClpP mod 1.4% and gsp antagonist inconclusive.
For O=C(Nc1ccc(S(=O)(=O)N2CCOCC2)cc1)c1ccccc1Br the results were TRPML1 blocker -6, TRPML1 ag 0.4, gsp agonist inconclusive, Menin MLL FP FL 2.6, ClpP mod 1.2% and gsp antagonist -1%.
For CN(C)c1ccc(CC(=O)N2CCCC(c3cc(C(=O)Nc4ccc(C(C)(C)C)cc4)no3)C2)cc1 (stereo not drawn) the results were TRPML1 blocker -8, TRPML1 ag 0.6 and ClpP mod 0.3%.
CCCCn1c(N)c(N(CC(C)C)C(=O)CC2CCCC2)c(=O)[nH]c1=O was read as TRPML1 blocker -4, TRPML1 ag -0.1, gsp agonist -33%[inhibitor], ClpP mod 0.8% and gsp antagonist 2%.
Screening C/C(=N\NC(=O)c1nn(C)c(C)c1Br)c1ccc(NC(=O)C2CCCC2)cc1 returned TRPML1 blocker 0, TRPML1 ag -0.6, gsp agonist -4%, ClpP mod -3.0% and gsp antagonist 5%.
CC1=C(C(=O)Nc2ccccc2)C(c2cccnc2)n2nc(-c3cccnc3)nc2N1 (stereo not drawn) was read as TRPML1 blocker 15, TRPML1 ag -0.4, gsp agonist -5%, Menin MLL FP FL 3.2, ClpP mod -3.5% and gsp antagonist 3%.
COc1cc2c(cc1OC)C(c1ccccc1N)=NCC2 was read as TRPML1 blocker -1, TRPML1 ag -0.2, gsp agonist 0%[15.4 µM], Menin MLL FP FL 0.2, ClpP mod -1.8% and gsp antagonist 8%.
For CC(=O)NC(Cc1ccc(C(C)C)cc1)C(=O)NC1CCN(C(=O)c2cccc(C)c2)CC1 (stereo not drawn) the results were TRPML1 blocker -13, TRPML1 ag -0.1, gsp agonist -2%, Menin MLL FP FL -6.9 and gsp antagonist 6%.
`CCCCc1ccc(NC(=S)NCc2cccnc2)cc1` gave TRPML1 blocker 6, TRPML1 ag 3.6, gsp agonist 35%, Menin MLL FP FL 4.3, ClpP mod -1.2% and gsp antagonist 3%.
`COC(=O)CCC(=O)OC1(C)C(=O)C2=CN(C3CCCC3)C(c3ccc(OC)cc3)=CC2=C(Br)C1=O` (stereo not drawn) gave TRPML1 blocker 9, TRPML1 ag 0.3, Menin MLL FP FL inconclusive, ClpP mod 2.3% and gsp antagonist -23%.
O=C(NNS(=O)(=O)c1ccc(Cl)cc1Cl)c1cc2ncc(C(F)(F)F)cc2s1 was read as TRPML1 blocker -2, TRPML1 ag 0.1, gsp agonist 6%[15.4 µM], Menin MLL FP FL 2.9 and gsp antagonist -15%.
`Cc1cc(=O)c(C(=O)O)nn1-c1ccccc1C(F)(F)F` gave TRPML1 blocker 0, TRPML1 ag 0.4, gsp agonist -12%[15.4 µM], Menin MLL FP FL -3.5 and gsp antagonist inconclusive.
Screening C/C(CCc1ccco1)=N/NC(=O)CCC(=O)Nc1cccc(Cl)c1 returned TRPML1 blocker 8, TRPML1 ag -0.5, gsp agonist -23%, Menin MLL FP FL -1.5, ClpP mod -2.7% and gsp antagonist -3%.
Screening CN(C)S(=O)(=O)c1cccc(NC(=O)CN2C(=O)C3C4C=CC(C4)C3C2=O)c1 (stereo not drawn) returned TRPML1 blocker -13, TRPML1 ag 1.0, gsp agonist -18%, Menin MLL FP FL 10, ClpP mod -1.9% and gsp antagonist 4%.
`CCOC(=O)C1CCCCN1Cc1cc(OC)ccc1OC` (stereo not drawn) gave TRPML1 blocker 15, TRPML1 ag 0.0, gsp agonist 6%, Menin MLL FP FL -1.2, ClpP mod 0.9% and gsp antagonist -7%.
COc1ccc(/C=N/NC(=O)c2cccnc2)c2ccccc12 was read as TRPML1 blocker 5, TRPML1 ag -0.3, gsp agonist -62%[inhibitor][15.4 µM], Menin MLL FP FL 0.6 and gsp antagonist -12%.
For COc1ccc(OCC(=O)NC(=S)Nc2ccc(S(=O)(=O)Nc3cc(OC)nc(OC)n3)cc2)cc1 the results were TRPML1 blocker 4, TRPML1 ag 1.4, gsp agonist -1%, Menin MLL FP FL 6.7, ClpP mod inconclusive and gsp antagonist 5%.
CC(=O)N(CN1C(=O)c2ccc([N+](=O)[O-])cc2C1=O)c1ccc(F)cc1 was read as TRPML1 blocker 11, TRPML1 ag 0.8, gsp agonist inconclusive, Menin MLL FP FL -3.0, ClpP mod 0.2% and gsp antagonist 3%.
Screening O=S(c1ccc2ccccc2c1)c1cnns1 (stereo not drawn) returned TRPML1 blocker -3, TRPML1 ag -1.0, gsp agonist 0%, Menin MLL FP FL 3.6, ClpP mod 1.0% and gsp antagonist inconclusive.
COc1ccccc1CN1CC(C(=O)NCCCc2ccc(F)cc2)CCC1=O (stereo not drawn) was read as TRPML1 blocker 5, TRPML1 ag -1.0, gsp agonist -35%[inhibitor], Menin MLL FP FL -4.6, ClpP mod -1.8% and gsp antagonist -2%.
Screening Cc1cccc(-n2nnnc2SCC(=O)c2cc(C)n(Cc3ccco3)c2C)c1 returned TRPML1 blocker -3, TRPML1 ag -0.5, gsp agonist -13%, Menin MLL FP FL -3.1, ClpP mod 2.5% and gsp antagonist 7%.
Screening COc1ccc(CN2CCN(C(C)C(=O)NC(C)c3ccc(F)cc3)CC2)cc1F (stereo not drawn) returned TRPML1 blocker 1, TRPML1 ag 0.8, gsp agonist -17%, Menin MLL FP FL -7.9 and gsp antagonist -6%.
CC(NC(=O)c1cc2c(=O)n(C)c3ccccc3c2n1C)c1ccc2c(c1)OCCO2 (stereo not drawn) was read as TRPML1 blocker 15, TRPML1 ag 1.4, gsp agonist -20%, ClpP mod -24% and gsp antagonist -9%.
Screening C[C@H](CO)N1C[C@H](C)[C@H](CN(C)C(=O)Nc2ccccc2)OCc2cnnn2CCCC1=O returned TRPML1 blocker -11, TRPML1 ag -0.6, gsp agonist 9% and ClpP mod 1.2%.
For O=C(NCCCc1ccccn1)C1CCC(=O)N(Cc2cccc(F)c2)C1 (stereo not drawn) the results were TRPML1 blocker 16, TRPML1 ag 0.1, gsp agonist -13%, ClpP mod -2.0% and gsp antagonist 11%.
Screening CC(=O)c1ccc(S(=O)(=O)N2CCN(C(=O)C3CCCC3)CC2)cc1 returned TRPML1 blocker -10, TRPML1 ag -0.1, gsp agonist -7%[15.4 µM], Menin MLL FP FL 2.9 and gsp antagonist 13%.
COc1ccc(C(=O)Nc2ccc(S(=O)(=O)Nc3ncccn3)cc2)cc1OC was read as TRPML1 blocker inconclusive, TRPML1 ag 1.7, gsp agonist 36%, Menin MLL FP FL -2.4 and gsp antagonist 2%.
`CCOC(=O)c1cccc(S(=O)(=O)N2CCOCC2)c1` gave TRPML1 blocker 0, TRPML1 ag -0.6, gsp agonist -3%[15.4 µM], Menin MLL FP FL -3.4 and gsp antagonist 0%.
Screening COc1ccc(C(=O)NC(=S)Nc2ccc(N3CCCC3)cc2)cc1 returned TRPML1 blocker 14, TRPML1 ag 0.9, gsp agonist inconclusive, Menin MLL FP FL -0.9 and gsp antagonist -3%.
For COc1ccc(CCNC(=O)CCCCC(=O)NCCc2ccc(OC)c(OC)c2)cc1OC the results were TRPML1 blocker -12, TRPML1 ag -1.1, gsp agonist 0% and gsp antagonist 13%.
Screening COCCNC(=O)Cn1c(=O)n(CCCCCC(=O)Nc2ccccc2)c(=O)c2sccc21 returned TRPML1 blocker 4&7, TRPML1 ag -0.4&0.3, gsp agonist 0%, Menin MLL FP FL -3.1, ClpP mod 1.1%&-2.3% and gsp antagonist 12%.
CN(C)c1cc(-c2ccc(C#N)cc2)oc(=O)c1Cl was read as TRPML1 blocker inconclusive, TRPML1 ag 0.6, gsp agonist 4%, Menin MLL FP FL 3.2, ClpP mod -7.7% and gsp antagonist -6%.
Screening COC(=O)c1cccc(Nc2ncnc3ccc(C)cc23)c1 returned TRPML1 blocker -11, TRPML1 ag -0.4, gsp agonist 25%, Menin MLL FP FL 1.4, ClpP mod -8.3% and gsp antagonist -9%.
`O=C(O)c1cccc(S(=O)(=O)Nc2cccc(S(=O)(=O)Nc3ccc(Br)cc3)c2)c1` gave TRPML1 blocker 26, TRPML1 ag 0.2, gsp agonist 0%, ClpP mod -2.9% and gsp antagonist 1%.
CCOc1ccc2[nH]c3c(=O)n(CCc4ccc(OC)cc4)cnc3c2c1 was read as TRPML1 blocker 6, TRPML1 ag 0.0, gsp agonist -7%[15.4 µM], Menin MLL FP FL -3.4 and gsp antagonist -25%.
For CCOC(=O)C1=C(C)N=C2SCCC(=O)N2C1c1ccc(OCc2ccccc2)c(OC)c1 (stereo not drawn) the results were TRPML1 blocker -5, TRPML1 ag -0.5 and ClpP mod -0.2%.
Screening COc1ccc(NS(=O)(=O)c2cccc(NC(=O)CCS(=O)(=O)c3ccccc3)c2)cc1 returned TRPML1 blocker 38, TRPML1 ag 0.4, gsp agonist -16%, Menin MLL FP FL 0.1, ClpP mod -2.3% and gsp antagonist -13%.
Screening COC(=O)c1c(-c2ccc(Cl)cc2)noc1N1CCN(c2cccc(C)c2C)CC1 returned TRPML1 blocker -4, TRPML1 ag -0.7 and ClpP mod 0.4%.

Bioassay records deposited in PubChem BioAssay by National Center for Advancing Translational Sciences (NCATS).
